Mtb growth: Mycobacterium tuberculosis H37Rv growth inhibition, cell based, confirmatory dose response (AID 1949); 100,000 tested, 1.6% active; inhibition, % at 10 µg/mL, or IC50 in µg/mL where a hit was titrated; most inactive calls were filed without a number and no value below 0 was filed;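 active means confirmed in a dose series; inconclusive means about 50% or more but not retested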;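 further: bacteria grown 7 days with compound before Alamar blue readout; 0% = untreated bacteria and 100% = reference antibiotic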
Starred values were filed as active, the others as inactive.

The first 4 records, ahead of the listing:
`COc1ccccc1CSc1ncc(-c2ccc([N+](=O)[O-])cc2)[nH]1` gave Mtb growth 31%.
`CCOC(=O)NC(=S)Nc1ccc(NC(C)=O)cc1` gave Mtb growth inactive.
O=CN1CCN(C(=O)CCCOc2ccccc2)CC1 was read as Mtb growth inactive.
`O=C(c1cc2c(s1)CCCCCC2)N1CCN(c2ccccn2)CC1` gave Mtb growth 9%.

The listing, from the first entry:
`COc1ccccc1CSc1ncc(-c2ccc([N+](=O)[O-])cc2)[nH]1` gave Mtb growth 31%.
`CCOC(=O)NC(=S)Nc1ccc(NC(C)=O)cc1` gave Mtb growth inactive.
O=CN1CCN(C(=O)CCCOc2ccccc2)CC1 was read as Mtb growth inactive.
`O=C(c1cc2c(s1)CCCCCC2)N1CCN(c2ccccn2)CC1` gave Mtb growth 9%.
For Cc1cccc(-n2c(SCc3ccc([N+](=O)[O-])cc3)nnc2-c2ccccc2)c1 the results were Mtb growth inactive.
CC1CN(CCCCOc2ccc(C(C)C)cc2)CC(C)O1 (stereo not drawn) was read as Mtb growth 6%.
`COc1ccc(Cn2ccc(=O)[nH]c2=O)cc1[N+](=O)[O-]` gave Mtb growth inactive.
Screening O=C(NC(=S)Nc1ccc(Br)c(Cl)c1)c1ccco1 returned Mtb growth inactive.
For COc1ccc(S(=O)(=O)Nc2ccc(S(=O)(=O)N3CCCCC3)cc2)c(Cl)c1Cl the results were Mtb growth inactive.
For CC(=O)Nc1cc(N2CCC(C)CC2)c([N+](=O)[O-])cc1Cl the results were Mtb growth inactive.
CCc1cccc(C)c1NC(=O)CN(c1cccc(OC)c1)S(=O)(=O)c1ccc(C)cc1 was read as Mtb growth 5%.
For Cc1cc(C)cc(NC(=S)Nc2ccc(Cl)c(Cl)c2)c1 the results were Mtb growth inconclusive.
For O=C(CCC1COc2ccccc2O1)Nc1ncc(C(F)(F)F)cc1Cl (stereo not drawn) the results were Mtb growth 7%.
`Cc1ccccc1CNC(=O)c1ccccc1N` gave Mtb growth 0%.
For CCOc1cc(C(=S)N2CCCCC2)ccc1OS(=O)(=O)c1ccc(C)cc1 the results were Mtb growth 6%.
Screening NC(=O)c1c(NC(=O)C(Sc2ccccc2)c2ccccc2)sc2c1CCCC2 (stereo not drawn) returned Mtb growth inactive.
`CC(NC(=O)c1ccccc1Br)c1nnc(SCC(=O)Nc2ccc(Cl)cc2)n1C` (stereo not drawn) gave Mtb growth 0%.
For COc1cc(C2NC(=O)NC(C)=C2C(C)=O)cc([N+](=O)[O-])c1O (stereo not drawn) the results were Mtb growth inactive.
`Cc1cc(C)nc(SC2CC(=O)N(c3ccc(Br)cc3)C2=O)n1` (stereo not drawn) gave Mtb growth inactive.
CC1=CC(C)(C)N(C(=O)CSc2ncccn2)c2ccc(C)cc21 was read as Mtb growth inactive.
Cc1ccc(SCC(=O)Nc2ccccc2C(=O)O)cc1 was read as Mtb growth 5%.
`COCCNC(=O)c1ccccc1NC(=O)c1ccccc1N(Cc1ccccc1)S(=O)(=O)c1ccc(OC)cc1` gave Mtb growth inactive.
COc1cccc(N(CC(=O)Nc2ccc3ccccc3c2)S(C)(=O)=O)c1 was read as Mtb growth 3%.
`CCOC(=O)c1ccccc1NC(=O)CCC(=O)O` gave Mtb growth inactive.

5 successive records out of the list so far, for reference:
CC1=CC(C)(C)N(C(=O)CSc2ncccn2)c2ccc(C)cc21 was read as Mtb growth inactive.
Cc1ccc(SCC(=O)Nc2ccccc2C(=O)O)cc1 was read as Mtb growth 5%.
`COCCNC(=O)c1ccccc1NC(=O)c1ccccc1N(Cc1ccccc1)S(=O)(=O)c1ccc(OC)cc1` gave Mtb growth inactive.
COc1cccc(N(CC(=O)Nc2ccc3ccccc3c2)S(C)(=O)=O)c1 was read as Mtb growth 3%.
`CCOC(=O)c1ccccc1NC(=O)CCC(=O)O` gave Mtb growth inactive.

The results go on.
COc1ccccc1NC(=O)c1ccc(NC(=O)C2COc3ccccc3O2)cc1 (stereo not drawn) was read as Mtb growth inconclusive.
`CCCCOc1cccc(-c2nnc(NC(=O)OC)s2)c1` gave Mtb growth 31%.
Screening CC(C)c1ccccc1NC(=O)C1c2ccccc2Oc2ccccc21 returned Mtb growth inactive.
For CC1CCC(C(=O)c2c(O)c3ccccc3oc2=O)CC1 (stereo not drawn) the results were Mtb growth inactive.
CCN(CC)CCCNC(=S)Nc1ccc(Br)cc1 was read as Mtb growth 1%.
`c1ccc(CC2CCN(CCOc3ccccc3)CC2)cc1` gave Mtb growth inactive.
CCOc1ccc(NC(=O)CSc2ccc(Br)cc2)cc1 was read as Mtb growth 19%.
`CC(C)(C)c1ccc(NC(=O)CSc2nnc3ccc4ccccc4n23)cc1` gave Mtb growth 8%.
Screening Clc1ccc(-n2ncc3c(NCc4ccc5c(c4)OCO5)ncnc32)cc1 returned Mtb growth inactive.
For Cc1cc(SCC(=O)c2ccc(F)cc2)nc2ccccc12 the results were Mtb growth inactive.
For O=C1CC(SCc2nc3ccccc3[nH]2)C(=O)N1c1ccc(F)c(Cl)c1 (stereo not drawn) the results were Mtb growth inactive.
`NC(=O)CC1C(=O)N(c2ccc(F)cc2)C(=S)N1NC(=O)CCc1ccccc1` (stereo not drawn) gave Mtb growth inactive.
`COc1ccc(NNC(=O)C(O)(c2ccccc2C)c2ccccc2C)cc1` gave Mtb growth inactive.
For COc1ccc(-n2ncc3c(N4CCN(Cc5ccccc5)CC4)ncnc32)cc1 the results were Mtb growth 10%.
`CCC(Sc1nc(-c2cccc(OC)c2)c(C#N)c(=O)[nH]1)C(=O)N1c2ccccc2Sc2ccccc21` (stereo not drawn) gave Mtb growth 2%.
O=C(Nc1ccc(Br)cc1)C1CCN(C(=O)Cc2ccccc2)CC1 was read as Mtb growth inactive.
For Cc1ccc(C23CC4CC(CC(C(=O)NCC(=O)O)(C4)C2)C3)cc1 the results were Mtb growth inactive.
Screening Cc1ccnc(NC(=O)Nc2ccc(Cl)cc2)c1 returned Mtb growth inactive.
COc1ccc(-c2nnnn2C)cc1S(=O)(=O)Nc1ccc(Cl)cc1 was read as Mtb growth inactive.
COC(=O)C1=CN(C(C)C)C=C(C(=O)OC)C1c1ccc(OC)cc1OC was read as Mtb growth inactive.
Screening COc1cccc(N2CCN(C(=S)Nc3cccc(C)c3C)CC2)c1 returned Mtb growth inactive.
Screening COc1ccc(C)cc1NC(=O)CSc1nnc(C(C)NC(=O)c2ccc(Cl)c(Cl)c2)n1C (stereo not drawn) returned Mtb growth 10%.
Screening COC(=O)COc1ccc2c(-c3cccc([N+](=O)[O-])c3)cc(=O)oc2c1 returned Mtb growth 0.34µg/mL*.
CC(C)c1ccc(C(=O)NC(=S)Nc2c(F)cc(F)cc2Br)cc1 was read as Mtb growth inactive.

4 records drawn at random from the list so far:
Screening COC(=O)COc1ccc2c(-c3cccc([N+](=O)[O-])c3)cc(=O)oc2c1 returned Mtb growth 0.34µg/mL*.
`Cc1cc(C)nc(SC2CC(=O)N(c3ccc(Br)cc3)C2=O)n1` (stereo not drawn) gave Mtb growth inactive.
CCc1cccc(C)c1NC(=O)CN(c1cccc(OC)c1)S(=O)(=O)c1ccc(C)cc1 was read as Mtb growth 5%.
O=C(Nc1ccc(Br)cc1)C1CCN(C(=O)Cc2ccccc2)CC1 was read as Mtb growth inactive.

Next part.
Screening CCOC(=O)C1CCCN(CCC(=O)Nc2ccc3c(c2)CCC3)C1 (stereo not drawn) returned Mtb growth inactive.
Screening COc1cc(OC)cc(C(=O)Nc2c(C)cccc2C(C)C)c1 returned Mtb growth inactive.
For Cc1ccccc1OCC(=O)Nc1cccc(C(=O)c2ccccc2)c1 the results were Mtb growth 1%.
CCOC(=O)C(Cc1ccccc1)C(=O)N1CCN(C)CC1 (stereo not drawn) was read as Mtb growth inactive.
`O=C(NC(=S)Nc1ccc(S(=O)(=O)N2CCCC2)cc1)c1ccc(F)cc1` gave Mtb growth inactive.
Screening CCOC(=O)c1sc(NC(=O)CSc2nnc(CSc3nc(C)cc(C)n3)o2)nc1C returned Mtb growth inactive.
`CS(=O)(=O)N1N=C(c2c(-c3ccccc3)c3cc(Cl)ccc3[nH]c2=O)CC1c1ccccc1` (stereo not drawn) gave Mtb growth 4%.
For O=C(NCCC1=CCCCC1)c1ccc(Br)cc1 the results were Mtb growth inactive.
Screening Cc1ccc(C)c(OC(=O)C(Cc2ccccc2)N2C(=O)c3ccccc3C2=O)c1 (stereo not drawn) returned Mtb growth 6%.
O=C(Nc1sc2c(c1C(=O)NCC1CCCO1)CCC2)c1ccccc1[N+](=O)[O-] (stereo not drawn) was read as Mtb growth 14%.
For FC(F)(F)c1ccc(Cl)c(-n2c(-c3ccc4ccccc4n3)n[nH]c2=S)c1 the results were Mtb growth 0%.
CCOC(=O)c1sc(NC(=O)Cc2cccs2)c(C(=O)OCC)c1C was read as Mtb growth inactive.
For CCOc1cc(C=O)cc(I)c1OCC(=O)NCCc1ccccc1 the results were Mtb growth inactive.
O=C(CSc1n[nH]c(-c2ccc(Cl)cc2)n1)Nc1nc(-c2ccccc2)cs1 was read as Mtb growth inactive.
For Cc1cc(C)c2c(n1)sc1c(N3CCN(CCO)CC3)ncnc12 the results were Mtb growth 2%.
CC(=O)N=NC(=O)c1ccc2c(O)n(C)c(O)c2c1 was read as Mtb growth inactive.
For Cc1cc(C)c(NC(=O)c2cc3c(C)nn(-c4ccccc4)c3s2)c(C)n1 the results were Mtb growth inactive.
For CCOc1ccccc1N(CC(=O)N1CCC(C)CC1)S(C)(=O)=O the results were Mtb growth inactive.
`C=CCc1ccc(OCCCOc2ccc(C=O)cc2OC)c(OC)c1` gave Mtb growth inactive.
For Cc1cc(C(=O)N2CCN(Cc3ccc4c(c3)OCO4)CC2)cs1 the results were Mtb growth 0%.
`COc1ccc(C2(C(=O)Nc3c(C)n(C)n(-c4ccccc4)c3=O)CCCC2)cc1OC` gave Mtb growth 1%.
For COc1ccc(-c2csc(NC(C)=O)n2)cc1OC the results were Mtb growth 18%.
`COc1ccc(NC(=O)c2ccc(N(Cc3ccccc3C)S(C)(=O)=O)cc2)cc1OC` gave Mtb growth inactive.
`Cc1nnc(SCC(=O)Nc2ccc3c4c(cccc24)CC3)n1C` gave Mtb growth 12%.
`CCSc1n[nH]c2nc3ccccc3n12` gave Mtb growth inactive.
Cc1ccc(C)n1-c1sc2c(c1C(=O)O)CCCC2 was read as Mtb growth inactive.
`CC(C)c1cccc(C(C)C)c1NC(=O)c1ccc(O)cc1` gave Mtb growth inactive.
CCOc1ccc(C(C)NC(=S)NC2CCCCC2)cc1 (stereo not drawn) was read as Mtb growth inactive.
Screening COc1ccc(Nc2nc(N)nc(COc3ccc(OC)cc3)n2)cc1 returned Mtb growth inactive.
`CCC(C)c1ccccc1OCC(=O)Nc1ccc([N+](=O)[O-])cc1` (stereo not drawn) gave Mtb growth inactive.
Screening COC(=O)c1cc(C)sc1NC(=S)Nc1ccn(Cc2ccc(Br)cc2)n1 returned Mtb growth inactive.
Screening CCOc1cc(C2Nc3ccccc3NC3=C2C(=O)CC(c2ccccc2)C3)cc(Br)c1O (stereo not drawn) returned Mtb growth 31%.
For O=C(OCc1ccc(Cl)cc1)c1cccc2ccccc12 the results were Mtb growth inactive.
COc1cccc(OCC(=O)Nc2ccc(-c3nc4ccccc4[nH]3)cc2)c1 was read as Mtb growth inactive.
`c1ccc(SCc2nc(-c3ccncc3)no2)cc1` gave Mtb growth inactive.
S=C(Nc1ccc2nc(-c3ccccn3)c(-c3ccccn3)nc2c1)N1CCOCC1 was read as Mtb growth 3%.
For CCOC(=O)c1ccc(NC(=O)C2C3CCC(C3)C2C(=O)O)cc1 (stereo not drawn) the results were Mtb growth inactive.
`CC(Oc1ccc(Cl)cc1Cl)C(=O)Oc1ccccc1[N+](=O)[O-]` (stereo not drawn) gave Mtb growth inactive.
Screening CC(=O)c1ccc(COc2ccc(Br)cc2)cc1 returned Mtb growth inactive.
`COc1cccc(C(=O)Oc2ccc(C(=O)Nc3cc(Cl)ccc3Cl)cc2)c1` gave Mtb growth 2%.
O=C(Nc1ccc(Cl)cc1C(F)(F)F)c1ccccc1[N+](=O)[O-] was read as Mtb growth inactive.
Screening O=C(CSc1nc2ccccc2c(=O)n1CCC1=CCCCC1)N1CCN(c2ccccc2)CC1 returned Mtb growth inactive.
`CNC(=O)c1ccc(NS(=O)(=O)c2ccc(C)cc2)cc1` gave Mtb growth 2%.
Screening Cc1ccc(S(=O)(=O)N(CC(=O)Nc2ccc(C(N)=O)cc2)c2ccc(C(C)C)cc2)cc1 returned Mtb growth inactive.
O=C(CC1CCCCC1)N1CCN(c2ccc(F)cc2)CC1 was read as Mtb growth 5%.
COc1ccc(C(=O)Nc2ccc(C(=O)OCc3ccc(Br)cc3)cc2)cc1 was read as Mtb growth inactive.
Screening CS(=O)(=O)N(CC(=O)NC1CCCC1)c1cccc(F)c1 returned Mtb growth inactive.
Cn1c(SCc2ccc(Cl)cc2Cl)nnc1-c1ccc(Br)cc1 was read as Mtb growth 11%.
For O=[N+]([O-])c1cccc(-c2noc(CCCc3ccccc3)n2)c1 the results were Mtb growth inactive.
Cc1cccc(NC(=O)CCC(=O)OCc2ccc(Br)cc2)c1 was read as Mtb growth inactive.
Screening CC(Oc1ccc(Br)cc1)C(=O)Nn1cnnc1 (stereo not drawn) returned Mtb growth inactive.
Cc1cc(C)c2c(CC(=O)Nc3ccccc3)coc2c1 was read as Mtb growth inactive.

Sorted by heavy-atom count (highest first): some entries from above.
COc1ccc(C(=O)Nc2ccc(C(=O)OCc3ccc(Br)cc3)cc2)cc1 was read as Mtb growth inactive.
Cc1cccc(NC(=O)CCC(=O)OCc2ccc(Br)cc2)c1 was read as Mtb growth inactive.
Screening CS(=O)(=O)N(CC(=O)NC1CCCC1)c1cccc(F)c1 returned Mtb growth inactive.
Screening CC(Oc1ccc(Br)cc1)C(=O)Nn1cnnc1 (stereo not drawn) returned Mtb growth inactive.

A portion of the library (hit frequency here may not be typical).
